NPR1 antag = human Npr1 receptor antagonism; AID 1347048; Potency, µM (titrated, usually from 46.3 µM), without a hit: at the top dose activity change, negative = inhibition, hits mostly inhibitors; 1.6% of 76,000 active; HEK293 hNpr1 GloSensor cGMP, ANP-stimulated luminescence; P16066; active = well fitted inhibition curve with a large enough effect; inconclusive = small, poorly fitted or top-dose-only effect; inactive = no such curve, though single readings can be large or run the other way;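 also: nearly all actives have a fitted effect of over 60% in size; nearly all hits also lower the signal before the agonist is added; a reference antagonist and vehicle were the controls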
Target sequence (P16066 whole entry, looked up): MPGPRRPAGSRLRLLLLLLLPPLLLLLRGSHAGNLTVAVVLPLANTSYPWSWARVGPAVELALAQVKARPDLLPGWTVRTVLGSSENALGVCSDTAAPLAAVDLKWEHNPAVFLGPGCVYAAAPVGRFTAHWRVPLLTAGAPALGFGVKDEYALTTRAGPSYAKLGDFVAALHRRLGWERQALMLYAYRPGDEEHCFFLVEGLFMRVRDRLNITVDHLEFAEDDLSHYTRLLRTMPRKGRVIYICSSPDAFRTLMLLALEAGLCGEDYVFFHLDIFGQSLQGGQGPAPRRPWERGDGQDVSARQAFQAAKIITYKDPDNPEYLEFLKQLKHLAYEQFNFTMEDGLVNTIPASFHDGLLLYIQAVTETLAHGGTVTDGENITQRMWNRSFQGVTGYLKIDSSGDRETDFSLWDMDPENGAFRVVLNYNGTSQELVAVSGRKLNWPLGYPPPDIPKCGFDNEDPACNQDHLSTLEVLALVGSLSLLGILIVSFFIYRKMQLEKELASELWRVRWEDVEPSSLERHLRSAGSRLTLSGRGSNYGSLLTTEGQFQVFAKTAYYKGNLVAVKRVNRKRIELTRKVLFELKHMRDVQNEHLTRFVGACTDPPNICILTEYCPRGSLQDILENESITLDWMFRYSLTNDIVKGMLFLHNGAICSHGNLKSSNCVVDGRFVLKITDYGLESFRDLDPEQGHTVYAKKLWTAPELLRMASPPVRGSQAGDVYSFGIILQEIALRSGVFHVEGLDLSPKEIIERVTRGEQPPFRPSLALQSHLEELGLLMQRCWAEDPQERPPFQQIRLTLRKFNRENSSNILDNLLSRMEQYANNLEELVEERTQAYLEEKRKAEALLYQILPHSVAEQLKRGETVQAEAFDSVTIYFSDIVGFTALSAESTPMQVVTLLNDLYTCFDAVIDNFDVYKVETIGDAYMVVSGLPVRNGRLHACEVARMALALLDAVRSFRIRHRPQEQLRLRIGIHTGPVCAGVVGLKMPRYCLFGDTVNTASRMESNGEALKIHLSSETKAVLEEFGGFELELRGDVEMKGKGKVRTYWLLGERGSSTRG
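HEK293 cells stably expressing human Npr1 and cGMP GloSensor pGS-40F, loaded 2 h with 2% GloSensor reagent, given compound 30 min at room temperature. Luminescence read before and 20 min after 0.1 nM hNppA.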
An asterisk follows results filed as active; ? = inconclusive; [ ] = dose if it differs, or a comment. % is scaled to controls: 0 for no effect and ±100 for the full control effect; potency is read from the fitted curve at half-maximal effect. The list is partial; the hit share may differ from the screen's.

SMILES | NPR1 antag
N[C@H]1CO[C@H]2[C@@H]1OC[C@@H]2n1cc(-c2ccccn2)nn1 | -4.4%[70.6 µM]
CN1CCC(NC[C@H]2O[C@@H]3C[C@@H](CC(=O)N4CCC(F)(F)C4)O[C@@H]3[C@@H]2O)CC1 | 0.0%[70.6 µM]
O=c1c2nc(-c3ccc(O)c(F)c3)ccc2ncn1-c1ccccc1 | 8.4%[70.6 µM]
CCOc1ccc(CC(=O)N2CCC3(CC2)N=C(c2ccc(C)cc2)NO3)cc1 | -13.5%
COc1ccc(C(=O)N2CCCC2c2nc(CCOc3ccc(F)cc3)no2)cc1 (configuration not stated) | -27.4%
CC(=O)NC1(C)CCN(Cc2cccc(-c3ccc4c(c3)OCCN4C)c2)C1 (configuration not stated) | ?
O=C1[C@@H]2C[C@@H](O)CN2C2(CN(Cc3ccccc3)C2)C(=O)N1Cc1ccccc1F | 3.2%[70.6 µM]
O=C(C1CC1)N1CCc2nn(Cc3ccccc3)c(=O)n2CC1 | -0.9%
O=C(NCCc1nc2ccccc2s1)[C@H]1CNC[C@@H](C(=O)N2CCOCC2)C1 | 2.2%
CC(=O)N1CCC(Oc2ccc(Cl)cc2C(=O)NCCCN2CCCC2=O)CC1 | 4.2%
O=C1CCN(C2CCN(Cc3ccccc3)CC2)CCCC(C(=O)NCc2ccccc2)CCN1 (configuration not stated) | 5.9%
Cc1[nH]nc(CCC(=O)N2CCC3(CCC(=O)N(CC4CC4)C3)CC2)c1C | 3.6%
COCCN1CC(CO)C2(CCN(Cc3cccc(Cl)c3F)CC2)C1 (configuration not stated) | -6.6%
COCCC(=O)N1CCOc2ccc(CN3CCc4ccccc4C3)cc2C1 | -1.3%
COc1cccc(CC(=O)N2CC(CNc3ccccc3)C3(C2)CN(c2ccccc2)C3)c1 (configuration not stated) | -16.3%
COC[C@@H]1[C@H](C(=O)Nc2ccc(F)cc2F)CCC(=O)N1C | 2.0%
N#Cc1cc2c(=O)n(CCc3n[nH]c4c3CCCC4)ccc2[nH]c1=O | 2.4%
CC(C)CC(=O)NC1CCN(C(=O)N2CC3CC(C2)[C@H]2CCCC(=O)N2C3)CC1 (some centres not stated) | -9.9%
CC1Oc2ccc(NC(=O)c3c(F)cccc3F)cc2CN(C2CCCc3ccccc32)C1=O (configuration not stated) | -15.8%
CCOc1ccc(CC(=O)NC2CCN(c3cc(-c4cccs4)[nH]n3)C2)cc1 (configuration not stated) | 0.0%
CCOc1ccc(CC(=O)N[C@@H]2CN(c3ccncn3)C[C@H]2CN(C)C)cc1 | 1.1%
O=C(CCCc1ccccc1)N1CCN(C(=O)c2nnn3c2COC(c2ccccc2)C3)CC1 (configuration not stated) | -1.1%
COc1ccc(-n2cc(CN3CCC(CO)CC3)c(-c3cccc(F)c3)n2)cc1 | 3.1%
O=C(Cc1c[nH]c2ncc(-c3ccsc3)cc12)NCc1cccnc1 | -13.9%[70.6 µM]
Cn1cc(-c2cnc3[nH]cc(CC(=O)Nc4ccccc4Cl)c3c2)cn1 | 5.4%[70.6 µM]
Cc1ccsc1C(=O)N1CCC(n2cnnc2C2CC2)CC1 | 6.2%
O=C(NCCc1ccccn1)c1ccc2c(c1)N(S(=O)(=O)c1ccccc1)CC2 | 4.0%
O=C(c1nnn2c1COC(c1ccc(Cl)cc1)C2)N1CCSCC1 (configuration not stated) | 0.0%
CCN1c2cc(C(=O)Nc3cc(OC)ccc3OC)ccc2C(=O)N2CCCCCC21 (configuration not stated) | -0.3%
CN1C(=O)c2cccn2CC1CNC(=O)c1nccn1C (configuration not stated) | -4.6%
Cc1noc(C)c1S(=O)(=O)N1C[C@@H](Oc2cccnc2)C[C@H]1C(=O)N1CCCC1 | 1.6%
COC1C(=O)N(C2CCN(C(=O)c3cnn(C)c3)CC2)C12CCOCC2 (configuration not stated) | 6.5%
C#CCN(C)Cc1nc(C2(O)CCN(C(C)=O)CC2)cs1 | 5.3%[70.6 µM]
CC(C)N1CC[C@@H]2[C@H]1C(=O)NC[C@H](CCC(=O)N1CCN(c3ccccc3)CC1)N2C | 1.1%[70.6 µM]
COc1ccccc1NC(=O)Cn1c(C)ccc(NS(=O)(=O)c2ccccc2)c1=O | 2.3%
Cc1ccc(C2Cn3nnc(C(=O)N4CCC(C(=O)NCCN(C)C)CC4)c3CO2)cc1 (configuration not stated) | 5.3%
COC(=O)C1=C(C)N=C2SC=C(CC(=O)Nc3ccc(C)c(C)c3)N2C1c1ccccc1 (configuration not stated) | -24.9%
O=C(Nc1ccccc1)O[C@H]1COCCN(c2nc3ccccc3o2)C1 | -6.2%[70.6 µM]
O=C(C[C@H]1NC(=O)c2ccccc2NC1=O)Nc1nc(-c2ccccn2)cs1 | -11.9%
O=C(CCCc1c[nH]c2ccccc12)N1CCc2c(nc3cc(-c4ccccc4)[nH]n3c2=O)C1 | -7.9%
CN(C)c1ccc(-c2cc3c(ccn3C)c(C(=O)NCc3cccnc3)n2)cc1 | -3.4%[70.6 µM]
O=C1NC2(CCCN(C(=O)c3cccnc3)C2)COc2ccccc21 (configuration not stated) | -17.7%[70.6 µM]
O=C(O)c1ccc(CN2C[C@@H]3OCC(=O)N(CC4CC4)[C@@H]3C2)cc1 | 0.2%[70.6 µM]
CN(Cc1ccc(-c2ccccc2)cc1)Cc1cccc(F)c1 | -0.6%[70.6 µM]
CS(=O)(=O)c1ccc(OCC2(CNS(=O)(=O)c3ccc(Cl)cc3)C[C@@H](O)[C@@H](O)C2)cc1 (some centres not stated) | 3.3%
CCN1c2cc(C(=O)Nc3ccc(OC)cc3)ccc2C(=O)N2CCCCCC21 (configuration not stated) | 6.2%
CN1CCCCCC(O)c2cc(C(=O)N3CCN(c4ccccn4)CC3)ccc21 (configuration not stated) | -21.2%
C[S+](=O)([O-])CCn1ncc2cc(OCC3CCN(Cc4cccs4)CC3)ccc21 | -1.0%[70.6 µM]
Cc1occc1C(=O)N1CCC2(CC1)CC(c1ccccc1)CN(C)C2 (configuration not stated) | 0.6%
c1ccc(-c2noc(-c3ccn4c(CN5CCCCCC5)nnc4c3)n2)cc1 | 3.2%

Three entries from above, set out differently.
NPR1 antag,structure
0.6%,Cc1occc1C(=O)N1CCC2(CC1)CC(c1ccccc1)CN(C)C2 (configuration not stated)
-3.4%[70.6 µM],CN(C)c1ccc(-c2cc3c(ccn3C)c(C(=O)NCc3cccnc3)n2)cc1
-1.0%[70.6 µM],C[S+](=O)([O-])CCn1ncc2cc(OCC3CCN(Cc4cccs4)CC3)ccc21

Other records.
SMILES | NPR1 antag
COc1cccc(CN2CCc3nn(C)c(=O)n3CC2)c1OC | 0.6%
CN1CCN(c2cc(=O)c3ccnc(NCc4ccccc4)c3o2)CC1 | 3.7%[70.6 µM]
O=C(Cc1cccnc1)N1CCOCC2(CN(Cc3cc(F)cc(F)c3)C2)C1 | 6.0%[70.6 µM]
COc1ccc(NC(=O)N[C@H]2[C@H](O)[C@@H](N3CCN(c4ccccc4)CC3)[C@@H]3OC[C@H]2O3)cc1 | 2.0%
Cc1ccc(-c2cc(N3CCC(CNC(=O)c4cc(C5CC5)[nH]n4)CC3)n[nH]2)cc1 | ?
COc1cccc(CC(=O)N2CCC[C@H]2C(=O)N2CCCCCCNC(=O)CC2)c1 | 2.8%
Cc1ccc(C)c(C(=O)NCc2nnc3ccc(-c4ccc(C)c(C)c4)nn23)c1 | -1.6%
O=C1NC2(CCCCC2)C(=O)N1CC(=O)N1CCCc2ccccc21 | 0.3%
COc1ccc(OCc2nc(C(=O)N3CCCC(C)(CO)C3)co2)cc1 (configuration not stated) | 4.8%
CC1=C[C@@H](CNC(=O)c2ccccc2)[C@H](C(C)C)C[C@H]1CC(=O)N1CCCC1 | -19.4%[70.6 µM]
CNc1ccc(C(=O)NCCCc2c(C)noc2C)cn1 | 1.9%
CCN1CCN(CCNC(=O)Cc2cccn2-c2ccc(C)cc2)CC1 | 3.6%
O=C(CN1CCN(c2ncccn2)[C@@H]2CS(=O)(=O)C[C@@H]21)NCc1ccco1 | -0.1%
C=CCCC(CN1CCSCC1)Oc1ncc(C)c(N(C)C)n1 (configuration not stated) | -11.7%
COc1cccc(NC(=O)Cn2c(-c3cccc(Cl)c3)nc(C)c(CCO)c2=O)c1 | -20.2%
CC(C)CN(Cc1cccnc1)C1CN(S(=O)(=O)Cc2ccccc2F)C1 | 3.7%
CCOCCN1C(=O)COC[C@@H]1[C@H](O)c1ccc(NC(=O)Cc2ccccc2)cc1 | -15.6%[70.6 µM]
CC(=O)N1CCCC2(C1)C(=NC1CCCCC1)NC(=O)N2c1cccnc1 (configuration not stated) | 19.8%
Cc1ccn2c(C(=O)N3CCn4nc(CCC(=O)NC(C)C)cc4C3)nnc2n1 | 0.4%
Cc1c(C(=O)N[C@H](c2cnn(C)c2)C2CC(O)C2)sc2nc[nH]c(=O)c12 (some centres not stated) | 2.5%
CCCc1nn(-c2cccc(C)c2)c(=O)n1CC(=O)NCc1ccc(C)o1 | -12.2%
COC(=O)NC(C)c1nc(-c2cccnn2)no1 (configuration not stated) | 3.9%
COc1ccc(-c2noc([C@@H](C)NS(=O)(=O)c3ccccc3)c2C(=O)O)cc1 | 8.0%[70.6 µM]
CCOc1cccc(CNC(=O)[C@H]2CCC[C@H]2NC(=O)c2ccc(OC)nc2)c1 | 0.0%
O[C@@H]1CO[C@H]2[C@@H]1OC[C@@H]2n1nnnc1SCc1ccco1 | -2.7%[70.6 µM]
CSc1ncccc1C(=O)NC1CC(=O)N(CC2CCCCC2)C1 (configuration not stated) | 1.9%
COc1ccc(C2Cn3nnc(C(=O)N4CCN(C(=O)c5ccccc5)CC4)c3CO2)cc1 (configuration not stated) | -28.1%
Cc1nc2cccnc2n1CC1CCCN(S(=O)(=O)c2ccc(F)c(Cl)c2)C1 (configuration not stated) | -21.4%
CN(Cc1cccnc1)Cc1nc(C2(O)CCN(C(=O)c3ccc(F)cc3)CC2)cs1 | 0.7%
CC(C)CNC(=O)N1CCC(c2noc(C3CC3)n2)C1 (configuration not stated) | -0.3%

A draw from above in order of formula weight, ascending.
SMILES | NPR1 antag
CC(C)CNC(=O)N1CCC(c2noc(C3CC3)n2)C1 (configuration not stated) | -0.3%
O[C@@H]1CO[C@H]2[C@@H]1OC[C@@H]2n1nnnc1SCc1ccco1 | -2.7%[70.6 µM]
COc1ccc(C2Cn3nnc(C(=O)N4CCN(C(=O)c5ccccc5)CC4)c3CO2)cc1 (configuration not stated) | -28.1%

Fetched by compound from above:
SMILES | NPR1 antag
CCCc1nn(-c2cccc(C)c2)c(=O)n1CC(=O)NCc1ccc(C)o1 | -12.2%
O[C@@H]1CO[C@H]2[C@@H]1OC[C@@H]2n1nnnc1SCc1ccco1 | -2.7%[70.6 µM]
Cc1nc2cccnc2n1CC1CCCN(S(=O)(=O)c2ccc(F)c(Cl)c2)C1 (configuration not stated) | -21.4%
COC(=O)NC(C)c1nc(-c2cccnn2)no1 (configuration not stated) | 3.9%
CCOc1cccc(CNC(=O)[C@H]2CCC[C@H]2NC(=O)c2ccc(OC)nc2)c1 | 0.0%
CSc1ncccc1C(=O)NC1CC(=O)N(CC2CCCCC2)C1 (configuration not stated) | 1.9%

Other compounds.
SMILES | NPR1 antag
COc1ccc(C(=O)N2CC[C@@H]3COCCN(C)[C@@H]3C2)c(OC)c1 | -10.9%
NC(=O)[C@H](Cc1cccs1)NC(=O)[C@@]1(O)C[C@@H](O)[C@H](O)[C@@H](NC(=O)Nc2ccc(OC(F)(F)F)cc2)C1 | -1.4%
Cc1ccc(C(=O)N2CCC(n3cc(-c4nc(C(C)C)no4)nn3)CC2)cc1 | 0.0%
CS(=O)(=O)c1ccc(CN2C[C@@H]3OCC(=O)N(Cc4ccc(F)cc4)[C@@H]3C2)cc1 | -0.8%[70.6 µM]
COc1ccccc1CC(=O)NCc1nnc2ccc(-c3ccc(C)c(C)c3)nn12 | 0.5%
CC1(C)CC(NC(=O)Cn2nc3c(cc2=O)CCCCC3)CCO1 (configuration not stated) | 0.9%
CC(C)NC(=O)N1CCN2C(=O)c3cc(-c4ccc5c(c4)OCO5)ccc3NC(=O)[C@H]2C1 | -3.8%
O=C(NC1CC1)C1CCCN(c2nc3ncccc3o2)C1 (configuration not stated) | 16.5%[70.6 µM]
O=C(CCCc1c[nH]c2ccccc12)N1CCc2nc3cc(-c4ccccc4)[nH]n3c(=O)c2C1 | -13.0%
COc1ccc(S(=O)(=O)N2C[C@@H]3C[C@H](C2)c2ccc(-c4ccc(OC(F)(F)F)cc4)c(=O)n2C3)cc1 | 1.2%
COc1cccc(C(=O)NC(C(=O)N2CCCCC2)C2CCN(C(=O)c3cccc(F)c3)CC2)c1 (configuration not stated) | 5.5%
CCN1C(=O)N(C2Cc3ccccc3C2)C(=O)C12CCN(Cc1cnc(-c3ccccc3)s1)CC2 | 6.4%
COc1ccccc1-c1noc(-c2nnn3c2COC(c2ccc(Cl)cc2)C3)n1 (configuration not stated) | -14.2%
Cn1cc(CN2C[C@@H](F)[C@@H](OCc3nc4ccccc4o3)C2)c2ccccc21 | 3.3%[70.6 µM]
CN(C)C[C@@H]1CN(c2ccncn2)C[C@H]1NC(=O)CC1CCCCC1 | 1.6%
Cc1nn(-c2ccc(C(F)(F)F)cc2)c(C)c1[C@@H]1C=C[C@@H](NC(=O)Nc2cccc(C#N)c2)C1 | ?
O=C(c1ccco1)N1CCCCC1c1nc(CCOCC2CC2)no1 (configuration not stated) | 5.2%
CN1[C@@H](CCC(=O)N2CCCC2)CNC(=O)[C@@H]2[C@H]1CCN2Cc1nc2ccccc2n1C | -2.2%
CCc1nncn1C1CCN(C(=O)c2nn(C)c3ccccc23)C1 (configuration not stated) | 1.5%
O=C(O)CCCNC(=O)Cn1nc2c(cc1=O)CCCCC2 | 4.4%
OCCC1CN(c2ccc(-c3nc(CCCc4ccccc4)no3)cn2)CCO1 (configuration not stated) | ?
Cc1ccccc1N1CCN(c2ncccc2CNC(C)Cn2cncn2)CC1 (configuration not stated) | -1.2%

Bioassay records (PubChem BioAssay)
